D2 potentiator: positive allosteric modulators of human D2 dopamine receptor | P14416 | DiscoveRx D2 beta-arrestin cells, luminescence, 90 min; 100% = 57 uM dopamine signal | potentiation, % (test concentration not listed) | 0.23% of 360,000 active; active = potentiation of 50% or more; inconclusive = 30% to 50%; inactive = 30% or less;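 further: compound concentration not given in the record; tested on top of an EC20 dose of dopamine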
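D2 cells co-treated with compound plus 50 nM dopamine (EC20) for 90 min at 37 deg C to detect potentiation. Beta-arrestin recruitment was read as enzyme-fragment luminescence after 1 h at ambient temperature. Full response was set by 57 uM dopamine.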
TRPV1 potentiator: enhances activation of the human vanilloid receptor TRPV1 | potentiation, % at 8.33 µM | TRPV1-expressing cells, Fluo-8 calcium influx, capsaicin EC20 potentiation; host cell line not named in the record; control for the full effect not named in the record | 0.02% of 320,000 active; active means potentiation above 80%; inconclusive means 30% to 80%; inactive means below 30%; further: 0% is about no effect
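Fluo-8 calcium influx in TRPV1-expressing cells, kinetic read (ex 480/em 520 nm). Compound added and read 3 min for agonist activity, followed by capsaicin at EC20 final and 2 min further read for enhancement.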
TRPML1 ag: activates the human TRPML1 channel. TRPML1-expressing cells, Ca2+ dye fluorescence, FDSS; host cell line not named in the record; reference of the full effect not given here. AID 624414. Q9GZU1. 0.12% of 410,000 active. activation, % (test concentration not listed); in the data active = activation above about 50%; inconclusive = about 30% to 50%; inactive = below about 30%; further: 0% is about no effect; the text of the record puts the active cut at 80%
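Tet-induced TRPML1-DL cells, 1,500 per well, cultured overnight, were loaded with a no-wash Ca2+ dye for 45–90 min. Calcium fluorescence was recorded on the FDSS for 110 s after compound addition, before the EC80 agonist (4 uM 54-4) was added.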
CtBP-E1A inh: blocks the CtBP interaction with E1A. AlphaScreen GST-E1A/His-CtBP binding, 1536-well; active compounds read low; control for the full effect not named in the record. activity change, % (test concentration not listed). 0.49% of 340,000 active. AID 651724; in the data active means activity change below about -65%; inconclusive means about -30% to -65%; inactive means above about -30%; further: on the % scale 0 is the no-effect control and ±100 the full control effect
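GST-E1A and His-tagged CtBP (125 nM each as 5X stock) were preincubated with pin-transferred compound for 2 h at 37 °C in the dark, then glutathione donor and nickel acceptor beads were added for 1 h before AlphaScreen reading.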
Six1-Eya2 blk: blocks human Six1 binding to Eya2. Q15475+O00167. AlphaScreen GST-Six1/His-Eya2 binding, biochemical; active compounds read low; control for the full effect not named in the record. activity change, % (concentration not given with the values). 0.56% of 360,000 active. AID 651725; in the data active = activity change below about -65%; inconclusive = about -30% to -65%; inactive = above about -30%; further: on the % scale 0 is the no-effect control and ±100 the full control effect
Target sequence (O00167 whole entry, looked up): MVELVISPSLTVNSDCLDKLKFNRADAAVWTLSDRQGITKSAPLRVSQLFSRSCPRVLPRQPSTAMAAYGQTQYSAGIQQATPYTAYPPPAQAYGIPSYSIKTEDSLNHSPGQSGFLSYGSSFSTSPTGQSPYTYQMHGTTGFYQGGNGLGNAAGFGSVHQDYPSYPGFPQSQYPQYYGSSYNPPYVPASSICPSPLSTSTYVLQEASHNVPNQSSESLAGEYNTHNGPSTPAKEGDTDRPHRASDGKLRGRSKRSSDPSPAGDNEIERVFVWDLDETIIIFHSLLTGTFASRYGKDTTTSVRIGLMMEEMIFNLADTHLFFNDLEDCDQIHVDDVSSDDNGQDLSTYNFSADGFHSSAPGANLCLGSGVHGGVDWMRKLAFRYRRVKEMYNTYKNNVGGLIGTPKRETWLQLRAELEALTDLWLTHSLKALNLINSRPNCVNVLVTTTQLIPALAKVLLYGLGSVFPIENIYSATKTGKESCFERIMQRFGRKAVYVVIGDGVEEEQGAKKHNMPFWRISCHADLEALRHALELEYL
Target sequence (Q15475 whole entry, looked up): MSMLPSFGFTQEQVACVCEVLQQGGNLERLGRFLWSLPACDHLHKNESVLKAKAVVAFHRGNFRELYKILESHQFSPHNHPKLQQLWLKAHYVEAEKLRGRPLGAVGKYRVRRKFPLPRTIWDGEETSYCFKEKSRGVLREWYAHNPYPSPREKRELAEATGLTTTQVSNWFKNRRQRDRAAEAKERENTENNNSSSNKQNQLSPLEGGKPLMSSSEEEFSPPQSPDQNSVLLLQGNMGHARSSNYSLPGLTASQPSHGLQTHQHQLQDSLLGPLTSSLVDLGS
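AlphaScreen luminescence read after one hour at 37 °C in darkness. Pin-transferred compounds met GST-Six1 and His-Eya2 protein (5X stock 250 nM/500 nM) plus glutathione donor and Ni-chelate acceptor beads (5X, 50 ug/mL).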
TRPML1 inh: inhibitors of human TRPML1 channel | activity change, negative = inhibition, % (concentration not given with the values) | Q9GZU1 | AID 624415 | TRPML1-inducible cells, Ca2+ dye fluorescence, FDSS; active compounds read low; inhibition of EC80 agonist-evoked calcium signal | 0.02% of 390,000 active; in the data active means activity change below about -50%; inconclusive means about -30% to -50%; inactive means above about -30%;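 further: stimulus is agonist 54-4 at its EC80 concentration; on the % scale 0 is the no-effect control and ±100 the full control effect; the text of the record puts the active cut at -80%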
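TRPML1-DL cells, Tet-induced overnight (~16 h, 37 °C) at 1,500 cells/well, were loaded with Ca8 no-wash dye plus quencher for 45-90 min at room temperature. Compounds were pinned during FDSS kinetic reading; agonist 54-4 at EC80 (4 uM final) then added.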
Starred values were filed as active, the others as inactive; ? = inconclusive; nt = not tested or not shown.

SMILES	D2 potentiator	TRPV1 potentiator	TRPML1 ag	CtBP-E1A inh	Six1-Eya2 blk	TRPML1 inh
CCCc1nc2ccccc2n1CCc1ccccc1	5	-16	-0.3	8	3	12
c1ccc(C2Nc3ccccc3-c3nc4ccccc4n32)cc1 (stereo unspecified)	-12	-17	0.7	0	5	9
Cc1cccc2cn[nH]c12	-6	1	0.0	nt	-5	-8
O=C(O)CN=C1NC2(CCCC2)Cc2ccccc21	2	-20	-0.6	5	3	-4
C/C(=N\OCc1ccc(C#N)cc1)c1cc2ccccc2o1	0	6	1.1	47	12	21
O=C(c1ccc([N+](=O)[O-])cc1[N+](=O)[O-])N1CCN(C(=O)C2CCCO2)CC1 (stereo unspecified)	3	4	0.6	-12	-4	-1
CC1CCCN(CCSc2ccc(Cl)cc2)C1 (stereo unspecified)	-38	11	1.4	4	2	-11
CC1CCCC(NS(=O)(=O)c2ccc3c(c2)OCCO3)C1C (stereo unspecified)	0	8	-1.0	0	-1	2
COCCCNC(=S)NNC(=O)c1ccc2c(c1)OCO2	6	?	0.3	7	8	-5
CCOc1ccccc1NC(=O)C1CCN(c2nc(-c3ccc(OC)cc3)no2)CC1	-1	-1	-0.6	3	0	-10
COc1ccccc1-c1n[nH]c(=S)n1Cc1ccccc1	-3	-2	1.2	-7	-1	-3
Cc1ccc(NC(=O)CCC(=O)OCCCC(F)(F)C(F)(F)F)cc1	12	-11	0.4	9	3	9
O=C(Cn1cnc2c(nnn2-c2ccc(F)cc2)c1=O)NCC1CCCO1 (stereo unspecified)	-14	-7	0.2	-11	9	10
COc1ccc(OC)c(-c2csc(NC(=O)COC(=O)C3CCC3)n2)c1	1	-4	2.2	-10	-11	19
OCCNC(=S)NCCc1ccccc1	-14	1	-0.4	5	4	13
COC(=O)c1ccc(CN(c2ccccc2OC)S(=O)(=O)c2cccs2)o1	-22	-3	2.6	24	16	-1
COc1ccc([C@H]2[C@H]3C=CC[C@@H](C)[C@@H]3C(=O)N2Cc2ccccc2)cc1Cl	-16	-31	-0.3	-4	-5	14
Cc1ccc(OCC(=O)Nc2ccncc2)cc1C	-6	nt	-0.3	3	-2	-8
CCC(=O)Nc1nc(-c2ccccc2)nc(SC)c1C(C)=O	-3	-12	0.6	-16	5	-18
Fc1ccc(NC(=S)NCc2ccc3c(c2)OCO3)cc1	-1	-2	0.2	3	-2	37
Cc1ccc(S(=O)(=O)N2CCC(C(=O)Nc3ccc(S(=O)(=O)N4CCCC4)cc3)CC2)cc1C	0	3	1.6	-2	-1	12
CN(C)/C=N/c1c(C#N)cnn1-c1nc2ccccc2s1	9	10	-1.1	1	-3	3
CC1(C)CC(=O)C2=C(C1)Nc1ncnn1C2c1cccs1 (stereo unspecified)	-19	22	0.3	-12	1	5
Cc1ccc([N+](=O)[O-])cc1S(=O)(=O)Nc1ccccn1	4	7	-0.7	6	-3	-15
CN1N=C(C(=O)N2CCCC(Nc3ccc(F)c(F)c3)C2)CCC1=O (stereo unspecified)	0	-27	-0.1	8	3	-5
CCCCCCSc1cc(-c2nc3cc(C)ccn3c2NC2CCCCC2)ccc1OC	1	1	-0.6	nt	-6	-10
Nc1nc(=O)n(C2CCCO2)cc1Br (stereo unspecified)	-12	nt	-0.3	2	22	-5
Cc1cc(C)c2c(=O)[nH]c(=O)n(Cc3ccccc3)c2n1	3	nt	-0.6	0	2	-14
COc1ccc(-c2cc3c(=O)n(CC(=O)NC4CCN(Cc5ccccc5)CC4)ncn3n2)cc1	-7	1	0.6	-1	6	18
COCCCN=C1NN=C(c2cc(C)n(-c3ccccc3F)c2C)CS1	-3	22	2.0	-3	-17	32
CS(=O)(=O)NN1C(=O)c2ccccc2NC1c1cccs1 (stereo unspecified)	-3	-8	-0.3	nt	10	-10
CCOC(=O)Nc1c(O)ccc2oc(C)c(-c3ccccc3)c12	0	?	1.2	-1	5	-6
Cc1ccc(S(=O)(=O)NCc2ccccc2)cc1C(=O)NCC1CCCO1 (stereo unspecified)	17	-3	-0.6	6	0	-4
CN(CC(=O)Nc1ccc(Cl)cc1)C(=O)c1cc(-c2cccs2)nn1-c1ccccc1	4	-6	1.9	-2	-10	-8
COc1ccc2nc(C)cc(SCC(=O)N/N=C/c3ccco3)c2c1	-3	-4	0.0	20	-20	10
CS(=O)(=O)N(CC(=O)N1CCN(C(c2ccccc2)c2ccccc2)CC1)C1CCCCC1	-4	-1	1.2	2	-1	-16
CC1=NN(c2ccccc2)C(=O)/C1=C\c1cn(-c2ccccc2)nc1C	-5	3	-0.8	0	15	-16
Cc1ccc(NC(=O)c2oc3ccccc3c2NC(=O)c2ccc3c(c2)OCO3)cc1	-5	-19	0.4	10	0	-17
CC1Cc2ccccc2N1C(=O)CCS(=O)(=O)c1cccc2nonc12 (stereo unspecified)	-6	-6	2.6	2	1	-3
Cc1cc([N+](=O)[O-])c(C)cc1-c1ccc(/C=N/n2cnnc2)o1	-6	-4	0.5	0	-2	?
CCCCc1nc2cc(C(=O)NCCc3c(C)n[nH]c3C)ccc2o1	6	nt	-0.1	3	-1	10
O=C(CCNC(=O)c1ccc(Br)cc1)NC1CCCCCC1	-12	-18	2.1	-12	5	-13
CC(C)CC(=O)NC(Nc1ccccc1F)C(Cl)(Cl)Cl (stereo unspecified)	0	-15	1.0	9	6	29
Cc1ccc(-n2c(=O)[nH]cc(C(=O)Nc3ccc4c(c3)OCO4)c2=O)cc1C	3	9	-0.1	6	0	12
CSCCC1NC(=O)N(CC(=O)Nc2cccc3ccccc23)C1=O (stereo unspecified)	-4	14	-0.4	6	-5	16
COc1ncccc1C(=O)N1CCCC(N2CCN(c3ccc(F)cc3)CC2)C1 (stereo unspecified)	-28	nt	-0.6	-1	11	-2
Cn1ccnc1Sc1ccccc1[N+](=O)[O-]	-7	6	3.3	8	0	10
O=C(COc1ccccc1)N(Cc1cc2ccccc2[nH]c1=O)CC1CCCO1 (stereo unspecified)	-9	3	0.7	7	-1	1
Cc1cc(C)c2c(n1)SCC(=O)N2CC(=O)Nc1ccccc1Cl	-4	17	0.5	4	-2	-11
C=CCNC(=O)c1sc(=S)n(-c2ccc(C(=O)OCC)cc2)c1N	-22	2	0.4	-15	-23	-7
O=C1C(C=NCCCn2ccnc2)=C(O)c2ccccc21	2	nt	0.0	0	-8	3
O=C(O)CCn1c(SCc2cc(=O)n3ccccc3n2)nc2ccsc2c1=O	1	-2	0.8	0	7	23
O=C(NCc1ccco1)C1CC(c2ccccc2O)=NO1 (stereo unspecified)	-5	2	-0.4	-2	-2	18
OCCCc1nc2ccccc2n1CCc1ccccc1	2	-9	2.8	1	0	5
O=C(COc1ncnc2cc([N+](=O)[O-])ccc12)NCc1ccc2c(c1)OCO2	?	-2	-0.5	?	?	25
O=C(NCc1ccc(F)cc1)c1cc(C2CCCN(C(=O)C3CCCCC3)C2)on1 (stereo unspecified)	5	nt	-1.1	7	-6	nt
CCOc1ccc(C)cc1S(=O)(=O)Nc1cccnc1	8	nt	0.4	0	2	4
CCOC(=O)c1[nH]cnc1C(=O)NCc1ccccc1	-38	nt	-0.9	0	-2	0
Cc1cccc(NC(=O)CN(C)C(=O)Cc2ccc(-c3ccccc3)cc2)c1C	0	nt	0.0	9	-2	-6
CCc1nnc(NS(=O)(=O)c2ccc(NC(=O)/C=C/c3ccc(F)cc3)cc2)s1	-1	-5	0.5	-17	-9	1
The list goes on:
SMILES	D2 potentiator	TRPV1 potentiator	TRPML1 ag	CtBP-E1A inh	Six1-Eya2 blk	TRPML1 inh
Cc1ccccc1-n1ncc2c(SCC(=O)NCc3cccs3)ncnc21	-8	24	2.7	29	19	-2
CN(NC(=O)c1ccccc1F)c1ccc([N+](=O)[O-])cn1	-10	-10	1.5	-10	-15	-2
O=C(NCC1CCCO1)/C(=C/c1cn(-c2ccccc2)nc1-c1cccnc1)NC(=O)c1ccccc1 (stereo unspecified)	0	0	0.5	-3	5	-6
Cc1ccc(S(=O)(=O)NCCC(=O)OCC(=O)N2CCCC2=O)cc1C	-25	10	-0.7	5	3	0

Compound activity: PubChem BioAssay, National Center for Advancing Translational Sciences (NCATS)

No enrichment for hits; about 0.95% have a hit in one of these screens.
